ClpP mod: qHTS Assay for Activators of ClpP | ATP-dependent Clp protease proteolytic subunit (Bacillus subtilis (strain 168)), P80244 | purified B. subtilis ClpP, FRET peptide cleavage, 20 min | Potency, µM (top dose mostly 57.5 µM), without a hit: at the highest dose activity change, negative = active | 340,000 tested, 1.9% active | AID 651965, 2013; active = well fitted falling curve with a large enough effect; inconclusive = small, poorly fitted or top-dose-only effect; inactive = no such curve, though single readings can be large or run the other way; note: potency is the fitted concentration of half-maximal effect; the source files actives as falling curves though it sought activators and does not explain the sign; nearly all actives have a fitted effect of over 65% in size; many hits overshoot -100%
Target sequence (P80244 whole entry, looked up): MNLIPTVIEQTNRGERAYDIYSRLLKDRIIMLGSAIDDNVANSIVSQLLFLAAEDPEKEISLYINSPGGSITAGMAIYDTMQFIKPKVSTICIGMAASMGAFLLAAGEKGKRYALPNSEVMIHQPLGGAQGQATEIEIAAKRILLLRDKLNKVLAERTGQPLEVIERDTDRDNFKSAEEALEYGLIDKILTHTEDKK
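FRET quenching reversal measured ClpP activation: 10 microg/mL B. subtilis ClpP at pH 8 with the FRET-FV decapeptide, read at 430 nm after 320 nm excitation. The 20-min minus 0-min signal was scaled between DMSO/no-enzyme wells and ADEP (5.8 microM final).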
gsp agonist: agonists of gsp mutant (McCune-Albright syndrome) | gsp mutant cells, cAMP HTRF, 30 min; control for the full effect not named in the record | Potency, µM (titrated, usually from 76.9 µM), for inactives: top-dose activation (cAMP increase), actives largely listed as activators | 340,000 tested, 0.13% active | AID 624287; active = well fitted activation curve with a large enough effect; inconclusive = small, poorly fitted or top-dose-only effect, or another doubt; inactive = no such curve, though single readings can be large or run the other way; cell line not stated here;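 note: phosphodiesterase inhibitor Ro 20-1724 added with compounds to block cAMP breakdown; potency is the fitted concentration of half-maximal effect; nearly all actives have a fitted effect of over 60% in size; about a fifth of the inactives were tested at one dose only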
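Cells in DMEM/10% FBS with G418 were pretreated with compounds in DMSO plus […] (300 uM stock) for 30 min at 37C. cAMP was measured by HTRF (cAMP-d2 plus anti-cAMP antibody-K) after 30 min at room temperature.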
TRPML1 agonist: human mucolipin-1 channel agonism; Q9GZU1; TRPML1-expressing cells, Ca2+ dye fluorescence, FDSS; host cell line not named in the record; reference of the full effect not given here; activation, % (no concentration beside the values); 410,000 tested, 0.12% active; AID 624414; in the data active = activation above about 50%; inconclusive = about 30% to 50%; inactive = below about 30%; note: 0% is about no effect; the text of the record puts the active cut at 80%
Target sequence (Q9GZU1 whole entry, looked up): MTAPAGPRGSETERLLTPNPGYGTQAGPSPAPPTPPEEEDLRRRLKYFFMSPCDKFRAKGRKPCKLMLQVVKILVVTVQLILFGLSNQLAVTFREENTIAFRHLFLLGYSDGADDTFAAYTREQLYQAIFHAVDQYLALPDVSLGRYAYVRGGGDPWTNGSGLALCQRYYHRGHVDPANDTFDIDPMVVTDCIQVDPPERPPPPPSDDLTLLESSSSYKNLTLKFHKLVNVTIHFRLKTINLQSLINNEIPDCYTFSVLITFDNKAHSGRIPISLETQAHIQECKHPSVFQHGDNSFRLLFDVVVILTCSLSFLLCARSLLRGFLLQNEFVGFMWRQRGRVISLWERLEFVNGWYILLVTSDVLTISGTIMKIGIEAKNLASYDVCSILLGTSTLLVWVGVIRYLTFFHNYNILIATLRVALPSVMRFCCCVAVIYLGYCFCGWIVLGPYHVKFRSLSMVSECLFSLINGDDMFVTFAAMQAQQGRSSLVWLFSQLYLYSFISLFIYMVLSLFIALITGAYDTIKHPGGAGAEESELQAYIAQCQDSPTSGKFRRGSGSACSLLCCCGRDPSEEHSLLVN
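TRPML1-DL cells, Tet-induced overnight (~16 h, 37 degrees C), loaded 45-90 min at room temperature with Ca8 no-wash calcium dye plus quencher. FDSS fluorescence: 10 s baseline, compound pin-transfer, 110 s agonist read, then EC80 54-4 (4uM final) and 110 s antagonist read.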
gsp antagonist: antagonists of gsp mutant (McCune-Albright syndrome) | gsp-mutant cells, cAMP HTRF, 30 min; control for the full effect not named in the record | Potency, µM (highest dose often 76.9 µM), for the others: at the top dose activity change, negative = inhibition, most hits filed as inhibitors | 340,000 tested, 0.4% active; active = falling curve of any shape with a large fitted effect; inconclusive = falling curve, mostly with a smaller effect; inactive = flat or rising curve; cell line not stated here;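 note: intracellular cAMP measured with PDE inhibitor Ro 20-1724 present during compound exposure; potency is the fitted concentration of half-maximal effect; % is set by controls: 0 for no effect and ±100 for the full control effect; nearly all actives have a fitted effect of over 65% in size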
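HTRF cAMP read-out (cAMP-d2 plus anti-cAMP antibody-K in lysis buffer, 30 min RT). Before lysis, cells are exposed to compounds with […] for 30 min at 37C in DPBS containing Ca/Mg, BSA and Tween 20.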
TRPML1 blocker: human mucolipin-1 channel inhibition; Q9GZU1; TRPML1-inducible cells, Ca2+ dye fluorescence, FDSS; active compounds read low; inhibition of EC80 agonist-evoked calcium signal; activity change, negative = inhibition, % (test concentration not listed); 390,000 tested, 0.02% active; in the data active means activity change below about -50%; inconclusive means about -30% to -50%; inactive means above about -30%;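 note: stimulus is agonist 54-4 at its EC80 concentration; % is set by controls: 0 for no effect and ±100 for the full control effect; compound concentration not given in the record; the text of the record puts the active cut at -80%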
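TRPML1-DL cells, Tet-induced overnight (~16 h, 37 °C) at 1,500 cells/well, were loaded with Ca8 no-wash dye plus quencher for 45-90 min at room temperature. Compounds were pinned during FDSS kinetic reading; agonist 54-4 at EC80 (4 uM final) then added.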
Menin-MLL FL inh: menin-MLL binding inhibition, fluorescein peptide | Fluorescence polarization, fluorescein-MLL peptide displacement from menin | 290,000 tested, under 10 active | FP activity change, % at 61.4 µM | AID 1766; inconclusive = falling polarisation curve, or a change in total fluorescence; inactive = total fluorescence flat and polarisation flat or rising; no compound was filed as active; the % refers to the polarisation; negative = inhibition;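 note: % of control where 0% means no effect; inhibitors lower the polarisation; unlabelled MLL peptide was the positive control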
An asterisk follows results filed as active; ? = inconclusive; . = no result given; & = joins results of further samples; [ ] = remark or other dose.

molecule	ClpP mod	gsp agonist	TRPML1 agonist	gsp antagonist	TRPML1 blocker	Menin-MLL FL inh
COCc1c(C(=O)OCC(=O)Nc2ccc(OC(F)F)cc2)oc2ccccc12	1.7%	-20%	0.9	-1%	17	.
COC(=O)c1ccccc1NC(=O)c1cnc2c(-c3cccc(C)c3)c(C)nn2c1C	2.2%	.	1.9	.	2	.
CCC(C)CCN1CCN=C1N(C)C (stereo unspecified)	-4.7%	?	0.1	8%	0	.
O=C(Cc1ccc(Br)cc1)N1CCc2ccccc2C1	?	?	-0.2	-1%	-8	0.4
CC1CN(CC(=O)Nc2ccc(S(N)(=O)=O)cc2)CC(C)O1 (stereo unspecified)	-1.0%	1%[15.4 µM]	0.2	4%	21	-2.6
N#CCc1c(C#N)c(N)nc(N2CCCC(O)C2)c1C#N (stereo unspecified)	-3.0%	-10%	-0.2	2%	-3	-0.8
CCNC(=O)NC(=O)C(C)OC(=O)c1oc2ccc(OC)cc2c1C (stereo unspecified)	32µM*	4%	0.9	8%	-10	-3.9
CC(=O)N1N=C(c2ccncc2)OC1(Cc1ccccc1)Cc1ccccc1	4.5%	7%	-0.4	-17%	-2	-1.9
CN(CCc1ccccn1)C(=S)NC(=O)c1ccco1	-1.9%	?	4.4	12%	2	-5.3
CCOC(=O)N1CCc2c(sc3nc4n(c(=O)c23)N=C(c2ccc(OC)cc2)CS4)C1	.	-46%[inhibitor]	0.3	5%	14	2.8
O=C(COC(=O)CCNS(=O)(=O)c1ccccc1)NC(=O)c1ccccc1	-0.5%	-24%	-0.2	-5%	-8	.
O=C(Nc1cc(S(=O)(=O)N2CCOCC2)ccc1N1CCCC1)c1cccnc1Cl	0.3%	-8%	.	-14%	.	1.8
Cc1ccccc1NC(=O)Cc1cn(C)c2ccccc12	1.8%	-8%	0.9	-2%	26	-0.1
CCn1c(C)c(C(C)=O)c(N2CCCC2)nc1=S	-1.7%	-1%	-0.8	14%	11	-1.3
O=C(Nc1ccc(C2SCCS2)cc1)c1ccccc1	.	1%	1.7	-2%	0	2.1
COCCNC(=O)c1ccc(Cn2c(=S)[nH]c3cc4c(cc3c2=O)OCO4)cc1	-4.2%	-5%	-1.7	-1%	6	-0.3
O=c1[nH]c(-c2ccc(Cl)cc2)nc(=S)[nH]1	0.8%	1%	-0.8	-4%	16	4.2
CCOc1ccc(Nc2nc(Cc3nnc(SCC(=O)NCC4CCCO4)n3C)cs2)cc1 (stereo unspecified)	-1.6%	-71%[inhibitor]	4.2	-1%	-21	1.7
CCOc1ncccc1C(=O)OCC(=O)c1cccc(Br)c1	.	-8%[15.4 µM]	1.6	-15%	-16	-2.6
O=C(NCCCNC(=O)c1cnccn1)c1ccc(Cl)cc1	.	-11%	0.1	3%	5	0.8
O=C(O)CCCn1cc(NC(=O)COc2ccccc2F)cn1	-1.6%	?	-0.3&0.2	8%	-6&-6	-23
CCOC(=O)C1=C(C)NC2=C(C(=O)CCC2)C1c1cn(Cc2ccc(Cl)cc2Cl)nc1-c1ccccc1 (stereo unspecified)	28µM*	-12%	-0.7	-27%	-12	1.3
COc1ccc(/C(C)=N/Nc2ccccc2Cl)c(O)c1	.	0%[15.4 µM]	-1.2	8%	0	0.4
COC(=O)c1ccc(NC(=O)CSc2nc3[nH]ncc3c(=O)[nH]2)cc1	.	19%[15.4 µM]	-0.6	10%	0	.
O=C(CNc1cccc(C(F)(F)F)c1)N/N=C/c1cccc(Br)c1	0.6%	27%	0.2	?	-3	1.3

Part of the list above, with two lines to a compound.
Values in the order – ClpP mod | gsp agonist | TRPML1 agonist | gsp antagonist | TRPML1 blocker | Menin-MLL FL inh
CCC(C)CCN1CCN=C1N(C)C (stereo unspecified)
 : -4.7% | ? | 0.1 | 8% | 0 | .
O=C(Cc1ccc(Br)cc1)N1CCc2ccccc2C1
 : ? | ? | -0.2 | -1% | -8 | 0.4

Additional entries follow:
molecule	ClpP mod	gsp agonist	TRPML1 agonist	gsp antagonist	TRPML1 blocker	Menin-MLL FL inh
N=c1c(C(=O)NC2CCCC2)cc2c(=O)n3ccccc3nc2n1CCN1CCOCC1	30%	?	-0.1	23%	-18	-1.7
COc1ccc(CCNC(=O)c2cnc3sc(N4CCOCC4)nn3c2=O)cc1OC	-19%	.	-0.5	.	-10	.
CC1(C)C(Cl)C(=O)C(C(=O)c2ccccc2)C(=O)C1Cl (stereo unspecified)	.	-21%	-0.5	-9%	-8	0.7
CC(C)(C)C1CCc2sc(-c3nnc(CCl)o3)cc2C1 (stereo unspecified)	0.5%	-73%[inhibitor]	1.7	0%	22	4.1
Cc1ccc2nc(-c3ccncc3)cc(C(=O)Nc3ccc(F)cc3C)c2c1	17%	-13%[15.4 µM]	1.6	-20%	5	-4.6
CCn1cc(/C=C2\SC(=O)N(CC(=O)Nc3ccc4c(c3)OCO4)C2=O)c2ccccc21	-1.0%	-32%[inhibitor]	0.2	20%	-3	-0.4
Cc1ccsc1/C=N/NC(=O)Nc1ccccc1	-3.1%	-1%	-0.3	4%	-2	-0.4
COC(=O)c1ccc(NC(=O)c2cc3cc(C)ccc3n2C)cc1	-26%	.	-0.6	.	-3	.
CCOc1ccccc1-c1nc(-c2ccc(-c3ccccc3)nc2OCC)no1	13µM*	.	0.7	.	25	.
O=C(O)[C@@H]1CCCN1c1ncnc2sc3c(c12)CCC3	-2.9%	4%	-1.1	8%	-20	-3.8
Clc1cccc(C2=NOC(c3nnc(-c4ccccc4)o3)C2)c1 (stereo unspecified)	-2.5%	-21%	-0.3	-4%	-4	-0.7
C=CCN(CC=C)C(=O)C[n+]1ccc(C(N)=O)cc1	0.4%	8%	-0.1	13%	11	-0.2
CCOC(=O)[C@@H]1[C@H]2COc3ccc(Br)cc3[C@H]2N2C(=O)N(c3ccc(F)cc3)C(=O)[C@]12C	-6.1%	-9%	1.6	0%	11	0.5
N#Cc1c2c(c(NCCN3CCOCC3)n3c1nc1ccccc13)CCCC2	?	-2%	3.2	-6%	73	3.0
CCCNC(=O)c1ccc(C2SCC(=O)N2CCc2ccccc2)cc1 (stereo unspecified)	-6.3%	-5%[15.4 µM]	-0.5	2%	1	6.0
CC1=CC2=NC(=O)/C(=C\c3cccn3CCOc3cc(C)ccc3C)C(=N)N2O1	1.1%	6%[15.4 µM]	-0.7	?	-9	1.0
COc1ccc(NS(=O)(=O)c2cn(C)cn2)cc1	-4.0%	6%[15.4 µM]	-0.4	10%	30	0.7
COc1cc(/C=N/NC(=O)c2ccc3c(c2)OCO3)ccc1O	-3.3%	2%	0.0	-1%	-18	-2.5
CCOc1ccc(NS(=O)(=O)c2ccc(C)c(C(N)=O)c2)cc1	2.9%	-4%	1.6	-22%	6	-2.2
COc1ccc(CNC(=O)COC(=O)CN2C(=O)C3CCCCC3C2=O)cc1 (stereo unspecified)	-1.3%	-53%[inhibitor]	-0.5	.	6	.
COc1ccc(B(O)O)cc1	-3.4%	.	-0.2	.	.	4.4
Cc1ccnc(NC(=O)CCC(=O)N(CC(=O)NCCc2ccccc2)c2ccccc2F)c1	.	4%[15.4 µM]	-0.1	-5%	-4	.
CC(C)CN(CC(C)C)C1=N/C(=C\c2ccco2)C(=O)N1c1ccccc1	-10%	18%	0.9	-3%	-10	?
Cc1noc(NS(=O)(=O)c2ccc(NC(=O)c3oc4ccc(Cl)cc4c3C)cc2)c1C	-1.5%	15%[15.4 µM]	-0.4	?	10	-0.6
Cc1nn(-c2ccc(N3CCCCC3)nn2)c(C)c1CCC(=O)NCc1ccc(F)cc1	0.8%	.	0.4	.	-22	.
CCCCC(CC)CNC(=O)Cc1ccc(-n2c(=O)[nH]c3ccccc3c2=O)cc1 (stereo unspecified)	?	.	0.6	.	9	.
Cc1ccc(NC(=O)NC(=O)c2ccccc2)cc1F	-0.4%	8%[15.4 µM]	0.5	4%	5	-0.5
Cc1[nH]c2ccccc2c(=O)c1SC(F)(F)C(F)C(F)(F)F (stereo unspecified)	-16%	16%	-0.2	3%	50	7.2
CN(C(=O)c1ccccc1Cl)C1CCCCC1	-1.8%	8%	-0.5	6%	-6	-0.7
O=C(NC(=S)NCC1CCCO1)c1ccc([N+](=O)[O-])cc1 (stereo unspecified)	-1.3%	12%	0.6	-15%	-6	7.0
COc1ccc(C)cc1NC(=O)CN(C)S(=O)(=O)c1cccs1	-2.6%	-26%	0.7	-6%	15	-1.7
COc1ccc(N2C(=O)C(C)(C)C2c2c(O)ccc3ccccc23)cc1 (stereo unspecified)	.	-5%[15.4 µM]	-0.4	-8%	20	-5.1
O=C(Nc1cccc([N+](=O)[O-])c1)C1C2CCCCC21 (stereo unspecified)	0.7%	16%	.	-11%	.	0.8
CCc1cc2cc(C)cc(C)c2nc1SCC(=O)N1CCCC1	-0.2%	6%	-0.5	-1%	4	0.7
Cc1ccccc1CS(=O)(=O)CC(O)CN1CCCC1=O (stereo unspecified)	-1.8%	-29%	0.6	-3%	-12	-1.3
O=C(CN(Cc1ccccc1Cl)C(=O)c1csnn1)NCc1ccc2c(c1)OCO2	.	-39%[inhibitor]	-0.2	-7%	-15	2.5
Cc1ccc(NC(=O)CN(C)C(=O)c2cccc(S(=O)(=O)N3CCc4ccccc4C3)c2)cc1	-1.7%	-28%	-1.2	.	0	.
CC(Oc1ccc2c(-c3ccccc3)cc(=O)oc2c1)C(=O)NCCN1CCOCC1 (stereo unspecified)	-3.8%	9%	-0.9	-5%	25	0.5
CCCNC(=O)N1CCN(S(C)(=O)=O)CC1	.	1%[15.4 µM]	-0.3	10%	1	-1.8
Cn1ncc(C#N)c1/N=C/N1CCCCC1	-2.0%	-16%	0.0	-5%	-6	1.7
CCOC(=O)c1ccc(NC(=O)CCc2c(C)nc3nc[nH]n3c2=O)cc1	-0.4%	.	-0.4	.	25	.
CCc1cc(=O)oc2c3c(cc(OCC(=O)N[C@H](C(=O)O)[C@H](C)CC)c12)OC(C)(C)CC3	.	51%	0.9	-3%	0	-9.0
